NS1 inh: qHTS Assay for Inhibitors of Influenza NS1 Protein Function; hit rate 0.4% among 270,000; Potency, µM (series often up to 46.1 µM), for the others: at the highest dose activity, positive = more growth; S. cerevisiae slowed by influenza A NS1, growth recovery by OD600; also: actives are rising curves; nearly all actives have a fitted effect of over 50% in size
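A cell-based growth assay was used: compounds that relieve NS1-induced slow growth of budding yeast raise OD600. Assay medium was yeast nitrogen base with ammonium sulphate and -URA supplement, pH 6.0, with 2% galactose.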
MARV entry inh: qHTS for inhibitors of binding or entry into cells for Marburg Virus; Potency, µM (doses to about 37.8 µM), inactives show top-dose activity change, negative = inhibition, hits mostly inhibitors; hit rate 1.8% among 300,000; Marburg virus pseudotyped entry inhibition, cell reporter; control for the full effect not named in the record; about a third of the inactives were read at about 46 µM; AID 540276, 2011; active = well fitted inhibition curve with a large enough effect; inconclusive = small, poorly fitted or top-dose-only effect, or effect the other way; inactive = flat fitted curve, though single readings scatter; tested in HEK293 cells; about a fifth of its hits are not listed in these tables; also: % is scaled to controls: 0 for no effect and ±100 for the full control effect; luciferase read-out
Lassa entry inh: qHTS for Inhibitors of binding or entry into cells for Lassa Virus | Lassa virus pseudotype entry inhibition, cell reporter; control for the full effect not named in the record | Potency, µM (highest dose often 37.9 µM), for the others: top-dose activity change, negative = inhibition, hits mostly inhibitors | hit rate 1.2% among 300,000; active means well fitted inhibition curve with a large enough effect; inconclusive means small, poorly fitted or top-dose-only effect, or effect the other way; inactive means flat fitted curve, though single readings scatter; tested in HEK293 cells; also: % is scaled to controls: 0 for no effect and ±100 for the full control effect; nearly all actives have a fitted effect of over 50% in size; luciferase read-out
Cruzain noTriton: qHTS Assay for Promiscuous and Specific Inhibitors of Cruzain (without detergent) | purified cruzain, Z-FR-AMC fluorescence, no detergent | Cruzipain (Trypanosoma cruzi), P25779 | AID 1476, 2009 | hit rate 2.3% among 200,000 | Potency, µM, for the others: max response, negative = inhibition, usual class: inhibitors; active = well fitted curve in the direction sought with a large enough effect; inconclusive = small, poorly fitted or top-dose-only effect, or another doubt; inactive = no such curve, though single readings can be large; an effect the other way counts as inactive or inconclusive;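 also: plate controls were enzyme without inhibitor for no effect and buffer without enzyme for full effect; nearly all actives have a fitted effect of over 40% in size; top concentration of the series not given in the record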
Target sequence (P25779 123-467 limits assumed): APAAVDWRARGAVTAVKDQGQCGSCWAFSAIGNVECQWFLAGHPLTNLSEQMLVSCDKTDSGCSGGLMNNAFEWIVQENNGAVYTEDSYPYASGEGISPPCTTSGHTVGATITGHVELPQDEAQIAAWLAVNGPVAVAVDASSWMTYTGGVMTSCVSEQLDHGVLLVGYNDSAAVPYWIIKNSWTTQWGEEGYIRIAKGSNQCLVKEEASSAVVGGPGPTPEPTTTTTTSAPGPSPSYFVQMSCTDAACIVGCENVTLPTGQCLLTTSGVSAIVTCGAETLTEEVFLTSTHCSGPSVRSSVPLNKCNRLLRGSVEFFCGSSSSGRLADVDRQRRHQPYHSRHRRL
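Purified cruzain at 1.5 nM, pre-incubated 15 min with compound at room temperature in 100 mM sodium acetate pH 5.5, 5 mM DTT, 0.00005% Triton X-100. Reaction started with 2 uM Z-FR-AMC; AMC fluorescence increase over 60 s gives rate.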
StopGo reporter: High Throughput Screening for Foot and Mouth Disease Virus Antivirals | human cells with a luciferase reporter of 2A StopGo recoding; control for the full effect not named in the record | Potency, µM (top dose mostly 57.9 µM), for inactives: top-dose signal change, negative = less light | hit rate 1.2% among 410,000 | AID 1159524, 2015; active = well fitted falling curve with a large enough effect; inconclusive = small, poorly fitted or top-dose-only effect; inactive = no such curve, though single readings can be large or run the other way; tested in HEK293T cells; also: % is scaled to controls: 0 for no effect and ±100 for the full control effect; nearly all actives have a fitted effect of over 45% in size; luciferase light after 4 h
Cruzain Triton: qHTS Assay for Promiscuous and Specific Inhibitors of Cruzain (with detergent); Cruzipain (Trypanosoma cruzi), P25779; purified cruzain, Z-FR-AMC fluorescence, 0.01% Triton; Potency, µM, without a hit: max response, negative = inhibition, most hits filed as inhibitors; hit rate 0.43% among 200,000; active = well fitted curve in the direction sought with a large enough effect; inconclusive = small, poorly fitted or top-dose-only effect, or another doubt; inactive = no such curve, though single readings can be large; an effect the other way counts as inactive or inconclusive;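 also: plate controls were neutral wells for no effect and buffer without enzyme for full effect; nearly all actives have a fitted effect of over 40% in size; top concentration of the series not given in the record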
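In this qHTS format, compounds are incubated with 1.5 nM cruzain for 15 min at room temperature before 2 uM Z-FR-AMC is added. Release of AMC is followed at 360/450 nm, and progress is taken as the 60 s fluorescence difference.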
RE007 growth inh: qHTS Assay for Inhibitors of the HIV-1 protein Vpr | S. pombe RE007 Vpr strain, BacTiter-Glo ATP luminescence, 24 h; control for the full effect not named in the record | Potency, µM (titrated, usually from 92.2 µM), for the others: top-dose activity change, negative = less growth | hit rate 0.21% among 360,000; active = well fitted falling curve with a large enough effect; inconclusive = small, poorly fitted or top-dose-only effect; inactive = no such curve, though single readings can be large or run the other way;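 also: % is scaled to controls: 0 for no effect and ±100 for the full control effect; nearly all actives have a fitted effect of over 50% in size; the assay follows cell death caused by Vpr and the record does not say whether a fall means rescue or toxicity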
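Fission yeast RE007 carrying one integrated HIV-1 vpr copy, seeded at OD 0.01 in PMG+AL medium with 23 nL pinned compound. Grown 24 h at 30 degrees; viability read by BacTiter-Glo luminescence after 5 min.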
SARS PLpro yeast: qHTS of Yeast-based Assay for SARS-CoV PLP; S. cerevisiae expressing SARS-CoV PLpro, growth rescue; control for the full effect not named in the record; Potency, µM (doses to about 32.9 µM), for the others: top-dose activity, positive = growth rescue; hit rate 0.19% among 330,000; also: 0% is about no effect; nearly all actives have a fitted effect of over 55% in size; growth read by luminescence after 48 h
Numbers without * were called inactive; ? = inconclusive; . = no result given; & = joins results of further samples; [ ] = dose if it differs, or a comment. Unless noted, calls follow the shape of the dose curve; as a rule, active means well fitted rising curve with a large enough effect; inconclusive means small, poorly fitted or top-dose-only effect; inactive means no such curve, though single readings can be large or run the other way. Potency is read from the fitted curve at half-maximal effect.

SMILES	NS1 inh	MARV entry inh	Lassa entry inh	Cruzain noTriton	StopGo reporter	Cruzain Triton	RE007 growth inh	SARS PLpro yeast
CC(=O)C1=C(C)OC(N)=C(C#N)C1c1cc([N+](=O)[O-])ccc1Cl (stereo unspecified)	5%	?	-24%	.	-16%	.	3%	1%
COc1cc(NC(=O)CN2CCCCC2)c(C)cc1[N+](=O)[O-]	-3%	?	7%	-4%	-1%	-3.0%	-9%	-19%
Cc1ccc(N2CC(C(=O)OCC(=O)c3c(N)n(CC(C)C)c(=O)n(C)c3=O)CC2=O)cc1 (stereo unspecified)	.	-3%	-10%	.	-27%	.	-4%	4%
O=C1N=C(N2C=CC(=C3C=CNC=C3)C=C2)/C(=C/N=NC(=O)c2ccccc2)S1	-9%	-1%[46.1 µM]	.	.	-6%	.	-3%	0%
Cc1nc(SCc2ccc(F)cc2)c2oc3ccccc3c2n1	3%	16%[46.1 µM]	-20%	.	6%	.	-21%	0%
CCCCn1c(/C=C/c2ccco2)nc2ccccc21	19%	11%	1%	-13%	6%	-15%	0%	-16%
O=C(COc1ccccc1)c1cn(CC(=O)N2CCOCC2)c2ccccc12	1%	-13%	9%	10%	-8%	4.9%	3%	3%
CCCOc1ccc(NC2=CC(=O)CC(C)(C)C2)cc1	-8%	25%	?	-15%	43%[activator]	-0.2%	6%	-5%
CCCOc1ccc(C(=O)Nc2ccc(Cl)cn2)cc1	-15%	6.3µM*	18µM*	-3%	?	3.3%	-1%	-19%
COc1ccc(NC(=O)CN2CCN(c3ccccc3)CC2)cc1	0%	?	?	.	-12%	.	-16%	-2%
COc1ccc(S(=O)(=O)Cc2ccc(C(=O)O)o2)cc1	6%	.	.	.	0%	.	314%	-1%
C=CCC1(CCCCC)C(=O)NC(=S)NC1=O	.	19%	20%[46.1 µM]	.	-21%	.	13%	.
CCC(C)C(=O)Nc1cc(OC)c(OC)cc1C(=O)O (stereo unspecified)	-12%	?	-1%	-4%	-18%	-0.8%	19%	-3%
O=C(Nc1cc(Cl)cc(Cl)c1)c1ccc(F)c(S(=O)(=O)N2CCc3ccccc32)c1	.	.	-13%[46.1 µM]	16µM*	?	0.9%	.	.
CC(C)N(C(=O)CSc1nnc(CN2CCCCCC2=O)n1-c1ccccn1)C(C)C	2%	-3%	18%	-10%	-13%	2.8%	-1%	0%
C=CCN(CC=C)C(=O)C(=O)c1cc(C)n(-c2ccc([N+](=O)[O-])cc2)c1C	-9%	-7%	?	-5%	?	-2.0%	-3%	0%
CCc1nnc(NS(=O)(=O)c2ccc(N3C(=O)c4ccccc4C3=O)cc2)s1	6%	?	18%	.	-10%	.	-3%	0%
Cc1nc2ccn(Cc3ccccc3)c(=O)c2cc1C(=O)N1CCN(c2ccc(F)cc2)CC1	-8%	-8%&-8%[46.1 µM]	?	?	?	-6.3%	3%	0%
O=C(Nc1ccc(Cl)cc1)O/N=C(\c1ccccc1)c1ccccn1	-2%	10%	18%	-2%	.	-0.2%	-15%	6%
Cn1c2ccccc2c2cc(C(=O)N3CCN(CCO)CC3)sc21	22%	9%	10%	-8%	-1%	-10%	-2%	2%
O=C(Nc1cc(S(=O)(=O)N2CCOCC2)ccc1N1CCOCC1)c1ccc(S(=O)(=O)N2CCCCC2)cc1	-3%	?	-24%	.	-2%	.	22%	-4%
COc1ccc(Cc2nnc(SCC(=O)c3cccc([N+](=O)[O-])c3)n2C)cc1	5%	-25%	-3%	2%	.	-0.5%	-2%	-3%
O=C(c1cc(-c2ccc3c(c2)OCO3)on1)N1CCN(c2ccc(F)cc2)CC1	-4%	-3%	-10%	-7%	7%	1.6%	10%	-1%
Clc1ccccc1CSc1snnc1-c1ccccc1	-5%	3%	?	-3%	63%[activator]	0.7%	-15%	-13%
COc1ccc(OC)c(C2C3=C(CCCC3=O)Nc3nnnn32)c1 (stereo unspecified)	-4%	?	3%	-1%	-14%	-5.8%	0%	20%
CC(=O)c1c(C)[nH]c(C(=O)OCC(=O)Nc2cccnc2Cl)c1C	.	-1%[46.1 µM]	-2%[46.1 µM]	.	?	.	2%	-2%
CCCCOc1ccc(CSCCN=C(N)N)cc1	1%	?	?	.	-12%	.	2%	0%
COc1ccccc1C(=O)Nc1ccc2c(c1)nc(CCNC(=O)c1ccco1)n2C	6%	?	-12%	.	8%	.	-10%	1%
O=C(Cc1c[nH]c2ccccc12)OCCOC(=O)Cc1c[nH]c2ccccc12	-2%	18µM*	?	1%	0%	-15%	-2%	-11%
c1ccc(Cn2cnc3ccccc32)cc1	4%	?	?	4%	.	-1.1%	12%	-4%
CC(=O)N1c2ccc(S(=O)(=O)N3CCCCC3)cc2CC1C(=O)Nc1ccc(C)cc1 (stereo unspecified)	-3%	?	?	.	-5%	.	0%	-4%
Cc1ccc(N(C(=O)Cc2cccs2)C(C(=O)NC2CCCC2)c2ccncc2)cc1 (stereo unspecified)	0%	.	.	.	-25%	.	0%	0%
Cc1ccc(C)c(S(=O)(=O)NC(Cc2c[nH]c3ccccc23)C(=O)O)c1 (stereo unspecified)	-2%	8%	6%	.	12%	.	21%	1%
O=S(=O)(NCC(c1ccco1)N1CCN(c2ccc(F)cc2)CC1)c1cc(F)ccc1F (stereo unspecified)	.	.	?	17%	?	1.3%	.	.
CCN(CC)c1ccc(/C=N/NC(=O)c2c(Cl)c(C)nn2C)cc1	-32%	9%	-22%	-17%	-12%	-10%	11%	3%
O=C(Oc1ccc(C(=S)N2CCOCC2)cc1Br)c1cc(Cl)ccc1Cl	28%	?	27%	?	-29%	-1.1%	-10%	-4%
Cc1ccc(NC(=O)c2ccc(OC(F)F)cc2)cc1S(=O)(=O)N(C)C	8%	?	-22%	-6%	?	-3.2%	5%	25%
Brc1ccc2ncnc(Nc3cccc4ccccc34)c2c1	-128%	?	?	?	.	-1.7%	?	-28%
Cc1ccc(NCC(=O)N/N=C/c2cc(O)ccc2[N+](=O)[O-])cc1	-9%	-1%[46.1 µM]	4%[46.1 µM]	.	4%	.	2%	-1%
OC(COC(c1ccc(F)cc1)c1ccc(F)cc1)CN1CCCC(C(F)(F)F)C1 (stereo unspecified)	-8%	-7%	1%	.	-2%	.	-7%	0%
CC(c1ccc(F)cc1)n1c(-c2ccc3ccccc3n2)n[nH]c1=S (stereo unspecified)	-6%	-8%	0%	-9%	.	-9.3%	9%	1%
O=C(Nc1ccccc1)c1sc(N2CCOCC2)nc1-c1ccccc1	-2%	?	-2%	7%	-18%	-5.5%	-7%	24%
CCc1ccc(NC(=O)CN2C(=O)C(c3ccc(C)cc3)=NC23CCCCC3)cc1	.	?	-22%[46.1 µM]	-3%	-2%	-6.1%	.	.
CCn1c2ccccc2c2cc(CN3CCN(C(=O)c4ccco4)CC3)ccc21	15%	?	-10%	5%	-25%	10%	-6%	4%
Cc1nnc(N2CCN(c3ccccc3F)CC2)c2c1nnn2Cc1ccccc1Cl	.	?	12%[46.1 µM]	2%	?	0.5%	.	.
O=C(NCC(=O)N(Cc1ccco1)C(C(=O)NC1CCCCC1)c1ccncc1)c1cccs1 (stereo unspecified)	-1%	-16%[46.1 µM]	-9%	.	-1%	.	1%	0%
CCOC(=O)c1cc2occc2n1CC(=O)NC1CCCCC1C (stereo unspecified)	-4%	-6%	18%	-11%	-11%	-1.5%	5%	19%
COc1cc(C(=O)N2CCC(NC(=O)C(Cc3ccccc3)NC(C)=O)CC2)cc(OC)c1OC (stereo unspecified)	-4%	-5%&-2%	-13%	-6%	5%	-4.8%	3%	-1%
OCCC1CN(Cc2ccon2)CCN1Cc1ccccc1 (stereo unspecified)	-2%	10%[46.1 µM]	16%	.	-3%	.	-4%	-1%
Cc1ccc2nc(NC(=O)c3ccc(OCC4CCCO4)cc3)sc2c1 (stereo unspecified)	29%	?	?	14%	?	-8.5%	-24%	8%
c1ccc(-c2cc(-c3ccccc3)ncn2)cc1	.	?	?	.	47%[activator]	.	-8%	.
COc1cccc(C(=O)Nc2nc(-c3ccc(S(=O)(=O)N4CCOCC4)cc3)cs2)c1	-2%	?	11µM*	?	?	0.4%	13%	?
CCOC(=O)N1CCN(S(=O)(=O)c2ccc(C(=O)N(CCCN(C)C)c3nc4cc(OC)ccc4s3)cc2)CC1	.	-3%	-10%	.	11%	.	3%	3%
C=CCSc1nnc(NC(=O)CSc2ccccn2)s1	-82%	14%[46.1 µM]	3%	-2%	6%	1.4%	-22%	2%
Cc1ccc(NC(=O)c2ccc(NC(=O)c3ccccc3)cc2)cc1C	-72%	?	?	.	?	.	10%	-5%
COc1ccc(C(=O)NCCn2ccc3ccccc32)cc1	-17%	?	?	-13%	-4%	-2.0%	23%	-4%
Cc1ccc(/C=N/NC(=O)CSc2ccccn2)o1	2%	1%[46.1 µM]	6%[46.1 µM]	.	0%	.	5%	-1%
CC(=O)N1CCCc2cc(S(=O)(=O)N3CCN(c4ccccc4F)CC3)ccc21	.	.	-10%[46.1 µM]	?	?	-0.9%	.	.
O=C1CCC(=O)N1CCSC(=S)N1CCSCC1	-5%	9%[46.1 µM]	20%	.	23%	.	-3%	0%
N/C(=N\OCc1ccc([N+](=O)[O-])cc1)c1ccncc1	5%	8%[46.1 µM]	-8%	.	40%[activator]	.	-7%	-3%
C/C(Cn1cnc([N+](=O)[O-])n1)=N\NC(=O)c1ccncc1	-1%	-21%	11%	0%	-10%	-2.6%	22%	10%
COc1cc(OC)c(NC(=O)/C=C/C(=O)O)cc1Cl	7%	-3%[46.1 µM]	-1%	.	-6%	.	-4%	-1%
